miR-21 FLuc: miR-21 reporter, rising signal. HeLa miR-21 FLuc reporter, luciferase, 48 h. Potency, µM (top dose mostly 38.3 µM), for the others: top-dose reporter change, positive = more light. 340,000 tested, under 10 active; active = well fitted rising curve with a large enough effect; inconclusive = small, poorly fitted or top-dose-only effect; inactive = no such curve, though single readings can be large or run the other way;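 also: % of control where 0% means no effect; miR-21 action dims this reporter so a rising signal means less miR-21 action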
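HeLa cells stably expressing CMV-driven firefly luciferase with a downstream miR-21 binding sequence, endogenously expressing miR-21, were treated with titrations (up to about 40uM final) for 48 hours at 37 degree Celsius. Luciferase luminescence was read after lysis.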
An asterisk follows results filed as active; ? = inconclusive; [ ] = remark or other dose. Only part of the results is shown, so the mix of outcomes need not match the whole.

SMILES	miR-21 FLuc
Cc1ccc(-c2noc(-c3ccccc3NC(=O)c3ccccc3)n2)cc1	-2%
Cc1ccc(Cl)cc1N1CCN(C(=O)c2cc(S(=O)(=O)N3CCCC3)c[nH]2)CC1	?
O=C(Cn1cnc2nc3c(cc2c1=O)CCCC3)N1CCN(c2ccccc2)CC1	-3%
O=C(NC1CCCCC1)c1ccc2c(c1)N(Cc1cccc(F)c1)C(=O)c1ccccc1S2	4%
Cc1cccc(C(=O)Nc2c(-c3ccc(F)cc3)nc3ccccn23)c1	0%
Cc1cc(C)c2oc(C(=O)Nc3c(C(=O)Nc4ccccc4)oc4ccccc34)cc(=O)c2c1	0%
CC(=O)C1=C(OC(=O)C(C)C)c2ccccc2S(=O)(=O)N1Cc1ccccc1	?
O=C(CSc1nnc(-c2ccc3c(c2)OCO3)o1)Oc1ccccc1	0%
CCN(CC)CCNC(=O)C(=O)NCC(c1cccnc1)N1CCN(c2ccc(F)cc2)CC1 (stereo not drawn)	0%
CCOc1ccc(NC(=O)CSc2ncc3c(n2)-c2ccccc2N(Cc2ccccc2C)S3(=O)=O)cc1	4%
COc1ccc(C(=O)Nc2ccc(NC(=O)c3cccs3)cc2)cc1OC	-29%
COC(=O)c1c(NC(=O)CCCOc2ccc(C(C)(C)C)cc2)sc2c1CCC(C)C2 (stereo not drawn)	-5%
O=C(O)CCn1ccc2cc(S(=O)(=O)N3CCCCC3)ccc21	0%
COc1ccc(CCNC(=O)Cc2c(C)c3c(cc(C)c4c(C)c(C)oc43)oc2=O)cc1	5%
Cc1ccc(-n2nc(C)c3nc(CCC(=O)Nc4cccc(F)c4)c(=O)n(C)c32)cc1	-1%
CCOC(=O)c1c(Nc2cccc(C)c2)nnc(-c2ccccc2)c1-c1ccccc1	?
CCC(CC)C(=O)Nc1cc(-c2nc3cccnc3s2)ccc1C	-29%
COc1ccc(N(Cc2cccs2)C(=O)COc2cccc(C)c2C)cc1	12%
CC(C)Cc1cc(C(=O)NCc2ccc(Cl)cc2)no1	-28%
COc1ccc(NC(=O)CSc2nc3nc(C)c(Cc4ccccc4)c(C)n3n2)cc1OC	0%
COC(=O)COc1ccc(-c2nnc(Nc3ccc(O)cc3)c3ccccc23)cc1	?
O=C(Cn1ncc2c3ccccc3n(Cc3ccccc3)c2c1=O)NCCc1ccc(Cl)cc1	-5%
COc1cccc(NC(=O)c2oc3ccccc3c2NC(=O)C2CCCCC2)c1	-1%
Cc1ccc(C)c(Nc2nn3c(=O)c4ccc(C(=O)NC5CCCCC5)cc4nc3s2)c1	-9%
COc1ccccc1CNC(=O)Cn1c(=O)oc2cc(S(=O)(=O)N3CCC(C)CC3)ccc21	26%
COc1ccc(NC(=O)c2cc(-c3ccc(F)cc3)no2)cc1OC	1%
O=C(CN1CCN(Cc2ccc(F)cc2)C1=O)NCc1ccccc1	0%
CCN1CCN(C(=O)c2ccc3c(c2)N(Cc2cccc(Cl)c2)C(=O)c2ccccc2S3(=O)=O)CC1	-2%
CCOc1ccc(CNC(=O)C2CCN(c3nc4ccccc4nc3C(F)(F)F)CC2)cc1OC	3%
Cc1ccc(CNC(=O)c2ccc3c(c2)nc(C)n3-c2cccc(F)c2)cc1	-4%
Cc1ccccc1CNC(=O)Cn1c(C)c2cnn(-c3ccccc3)c(=O)c2c1C	-12%
COc1ccccc1-c1nnc(C2CCN(S(=O)(=O)c3ccccc3)CC2)o1	-7%
COc1ccc(C)cc1NC(=O)Nc1cccc(OCc2cc(=O)n3ccc(C)cc3n2)c1	-7%
COc1ccc(N2C(=O)CSC23C(=O)N(CC(=O)NC2CCCCC2)c2ccccc23)cc1 (stereo not drawn)	-2%
CCCCOc1ccc(C2=NC(c3ccncc3)=Nc3ccc(OCC)cc3N2)cc1	9%
CCc1ccccc1NS(=O)(=O)c1ccc2c(c1)CC(=O)N2	?
CCCCCn1c(CCCNC(=O)c2ccc(Cl)cc2)nc2ccccc21	6%
COCCn1c(CCC(=O)Nc2ccc(C)c(Cl)c2)nc2cccnc21	-8%
Cc1cccc(NC(=O)Cn2c(=O)n(Cc3nc(-c4ccccc4)no3)c(=O)c3ccccc32)c1	3%
COc1ccccc1NC(=O)N1c2ccccc2Sc2ccccc21	-1%
COCCNC(=O)C(=O)NCC(c1cccnc1)N1CCN(c2ccccc2F)CC1 (stereo not drawn)	-3%
COc1ccc(-c2onc(C)c2C)cc1S(=O)(=O)NCc1ccc(C)o1	21%
CCc1ccc(S(=O)(=O)c2nnn3c2nc(NCCC(C)C)c2cc(Cl)ccc23)cc1	0%
COc1ccc(CN2C(=O)C(NC(=O)c3ccc(C)cc3)(C(F)(F)F)N=C2c2ccccc2)cc1 (stereo not drawn)	-1%
CCCCc1c(C)nc2c(-c3ccc(OC)cc3)c(C)[nH]n2c1=O	0%
CCOc1cc(C(=O)Nc2ccc3nc(N4CCN(C)CC4)cc(C)c3c2)cc(OCC)c1OCC	25%
COc1ccccc1-c1noc(CSc2nc3ccc(C)cc3[nH]2)n1	0%
Cc1ccc(NC(=O)CCC(=O)N2Cc3ccccc3Oc3ncccc32)cc1	1%

An excerpt from above in order of heavy-atom count, smallest number first:
SMILES	miR-21 FLuc
CC(C)Cc1cc(C(=O)NCc2ccc(Cl)cc2)no1	-28%
CCc1ccccc1NS(=O)(=O)c1ccc2c(c1)CC(=O)N2	?
O=C(O)CCn1ccc2cc(S(=O)(=O)N3CCCCC3)ccc21	0%
CCCCc1c(C)nc2c(-c3ccc(OC)cc3)c(C)[nH]n2c1=O	0%
COc1ccccc1NC(=O)N1c2ccccc2Sc2ccccc21	-1%
COc1ccc(-c2onc(C)c2C)cc1S(=O)(=O)NCc1ccc(C)o1	21%
COc1ccc(N(Cc2cccs2)C(=O)COc2cccc(C)c2C)cc1	12%
Cc1ccc(CNC(=O)c2ccc3c(c2)nc(C)n3-c2cccc(F)c2)cc1	-4%
COc1cccc(NC(=O)c2oc3ccccc3c2NC(=O)C2CCCCC2)c1	-1%
COC(=O)COc1ccc(-c2nnc(Nc3ccc(O)cc3)c3ccccc23)cc1	?
COC(=O)c1c(NC(=O)CCCOc2ccc(C(C)(C)C)cc2)sc2c1CCC(C)C2 (stereo not drawn)	-5%
COc1ccc(CCNC(=O)Cc2c(C)c3c(cc(C)c4c(C)c(C)oc43)oc2=O)cc1	5%
COc1ccccc1CNC(=O)Cn1c(=O)oc2cc(S(=O)(=O)N3CCC(C)CC3)ccc21	26%
CCN(CC)CCNC(=O)C(=O)NCC(c1cccnc1)N1CCN(c2ccc(F)cc2)CC1 (stereo not drawn)	0%
COc1ccc(CN2C(=O)C(NC(=O)c3ccc(C)cc3)(C(F)(F)F)N=C2c2ccccc2)cc1 (stereo not drawn)	-1%
CCOc1cc(C(=O)Nc2ccc3nc(N4CCN(C)CC4)cc(C)c3c2)cc(OCC)c1OCC	25%
CCOc1ccc(NC(=O)CSc2ncc3c(n2)-c2ccccc2N(Cc2ccccc2C)S3(=O)=O)cc1	4%

Next section:
SMILES	miR-21 FLuc
COCCN(Cc1cccs1)S(=O)(=O)c1cc(-c2cc(C)no2)ccc1C	18%
Cc1nc2ccccc2n1CCc1nc2c3ccccc3nc(SCC(=O)Nc3ccc(C(C)C)cc3)n2n1	15%
CC(NC(=O)c1ccc(CSc2nc3ccncc3n2Cc2ccc(F)cc2)cc1)c1ccccc1 (stereo not drawn)	1%
O=C(Cn1cc(SCc2ccccc2F)c2ccccc21)N1CCCC1	-47%
CCn1c(CNC(=O)c2ccc(OC)cc2)nnc1SCC(=O)Nc1ccc(C)cc1	-7%
Cc1cccc(NC(=O)Cn2c(SCC(=O)NCc3ccccc3)nc3ccccc32)c1C	3%
CC(C)(C)c1ccc(C(=O)Nc2ccc(NC(=O)c3ccc(Cl)c(Cl)c3)cc2)cc1	1%
CCOc1ccc(CCNc2ncnc3onc(-c4ccc(F)cc4)c23)cc1OCC	11%
CCCCN(C)CCCNC(=O)C1CCN(c2nc3ccc(CC)cc3s2)CC1	?
COc1ccc(/C=C(/C#N)c2nc(-c3ccc(Br)cc3)cs2)cc1	-2%
CCCN(CCC)CC(O)Cn1cc(/C=C/C(=O)c2ccc(C)cc2)c2ccccc21 (stereo not drawn)	25%
CCOC(=O)c1cnc2c(C)cc(C)cc2c1NCCN1CCOCC1	0%
CCC(=O)N1c2ccc(S(=O)(=O)N3CCCCCC3)cc2CC1C (stereo not drawn)	-30%
Cc1ccc(Cl)cc1N1CCN(c2ncnc3onc(C)c23)CC1	?
Cc1ccc(CCNC(=O)c2ccc(CS(=O)(=O)Cc3ccc(Cl)cc3)o2)cc1	2%
CCCn1cc(S(=O)(=O)c2ccc(OCC)cc2)c(=O)c2cc(C)ccc21	-8%
CC(=O)Nc1ccc(C)cc1-c1nc2ccccc2n(CC(=O)Nc2cc(Cl)ccc2C)c1=O	-2%
Fc1ccc(NCc2nc3ccccc3n2CCOc2ccccc2Cl)cc1	-15%
COc1ccc([C@]23Cc4cc(C#N)ccc4C(O2)C2=C(CC4(CCCCC4)OC2=O)O3)cc1	-1%[7.66 µM]
Cc1c(NC(=O)c2cc(=O)c3ccccc3o2)c(=O)n(-c2ccccc2)n1C	-1%
CCOCCCn1c(SCC(=O)Nc2ccccc2CC)nc2ccccc2c1=O	8%
COC(=O)c1c(C)sc(-c2c(-c3ccc(F)cc3)[nH]c3[nH]c(=O)[nH]c(=O)c23)c1O	-16%
CC(C)CCNC(=O)c1cccc(Nc2nc3ccccc3n3nnnc23)c1	1%
CC(=O)c1cccc(Nc2ncnc3c2cnn3C)c1	4%
Cc1ccc(NC(=O)CC2Nc3cccc4cccc(c34)NC2=O)cc1 (stereo not drawn)	13%
CCc1cccc(C)c1NC(=O)CN1CCN(Cc2ccccc2Cl)S1(=O)=O	19%
Cc1cn2c(=O)cc(COc3cccc(NC(=O)c4ccc(C(C)(C)C)cc4)c3)nc2s1	1%
COc1cccc(-c2cn3c(n2)sc2cc(C(=O)NCCc4ccccc4)ccc23)c1	-5%
Cc1nc(-c2ccc(Cl)cc2)sc1CCNC(=O)C(=O)Nc1ccc2c(c1)OCO2	-33%
CC(C)c1ccc(S(=O)(=O)N2CCN(Cc3cccc(F)c3)CC2)cc1	0%
Cc1ccc(S(=O)(=O)NCC(c2ccc(N(C)C)cc2)N2CCc3ccccc32)cc1 (stereo not drawn)	-2%
CCOc1ccc(C(=O)c2cn(CC(=O)Nc3ccc(OC)cc3)c3cc4c(cc3c2=O)OCCO4)cc1	-4%
Cc1ccc(Sc2c(C)nn(C(=O)COc3ccccc3Br)c2C)cc1	-19%
CCC(CC)C(=O)Nc1ccc2nc(SCC(=O)N3CCOCC3)sc2c1	11%
COc1ccccc1Nc1nn2c(=O)c3ccc(C(=O)NCc4ccc(F)cc4)cc3nc2s1	?
CCCCCn1c(=O)[nH]c2cc(C(=O)Nc3cc(OC)cc(OC)c3)ccc2c1=O	6%
Cc1ccc(S(=O)(=O)Nc2ccc3c(c2)c(C(=O)OC(C)C)c(C)n3S(=O)(=O)c2ccc(C)cc2)cc1	10%
Cc1ccc(C)c(Cn2cc(CCC(=O)NC3CCCCC3)c3ccccc32)c1	5%
CCC1CN(C(=O)N2CCC(C(=O)NCCc3ccccc3C)CC2)c2ccccc2O1 (stereo not drawn)	?
CCOC(=O)C1CCN(CCC(=O)Nc2ccccc2OC)CC1	-1%
CCc1ccc(/C=C2/SC(=S)N(CCC(=O)Nc3ccc(C(=O)O)cc3)C2=O)cc1	-3%
CCOc1ccc(CCNC(=O)CN(c2ccc(C)cc2)S(=O)(=O)N(C)C)cc1OCC	-1%
CNC(=O)C1CCN(C(=O)N2CC(C)Oc3ccc(C)cc32)CC1 (stereo not drawn)	-1%
COc1cc(Br)c(/C=C(\C#N)c2nc3ccccc3[nH]2)cc1OC	-14%
Cc1ccc(NC(=O)C(=O)NCC(c2cccnc2)N2CCc3ccccc32)cc1Cl (stereo not drawn)	1%
O=C(COc1ccccc1Cl)Nc1ccc(OCc2cc(=O)n3ccsc3n2)cc1	-2%
CCOC(=O)c1[nH]c(C)c(CCC(=O)Nc2cccc(C(F)(F)F)c2)c1C	1%
Cc1oc(-c2ccc(C(=O)NC(C)c3ccccc3)cc2)nc1CS(=O)(=O)c1ccccc1 (stereo not drawn)	3%
Cc1ccc(OCCn2cc(C(=O)C3CCCCC3)c3ccccc32)cc1	4%
Cc1ccc(NS(=O)(=O)c2cn(C)c(C)n2)c(Br)c1	-4%
O=C(Cc1ccc(F)cc1)NCCc1csc2nc(-c3ccccc3F)nn12	-3%
CCCCNC(=O)c1cc2n(n1)CCCN(Cc1ccc(C)cc1)C2=O	-2%
COC(=O)c1c(-c2ccc(Cl)cc2)noc1N1CCN(c2cccc(OC)c2)CC1	4%
Cc1ccc2[nH]cc(C(c3ccccc3)c3ccc(C)s3)c2c1 (stereo not drawn)	12%
Cc1cc(Cl)ccc1OCC(=O)N(Cc1sccc1C)C1CCS(=O)(=O)C1 (stereo not drawn)	1%
CCN(Cc1nc(-c2ccc(OC)cc2)oc1C)S(=O)(=O)c1ccc(Cl)cc1	13%
COc1ccc(CNC(=O)Cc2csc3nc(-c4ccc(F)cc4)cn23)cc1	-10%
Cc1cc2nn(-c3ccc(F)cc3)nc2cc1NC(=O)c1cccc2ccccc12	-28%
Cc1cccc(NC(=O)CSc2nnc3[nH]c(=O)cc(-c4ccccc4)n23)c1C	5%
O=C(Nc1ccc(F)cc1F)c1cc(-c2ccc(Cl)cc2)on1	4%

Next section
SMILES	miR-21 FLuc
Cc1cccn2c(=O)cc(CSc3nnc(NC(=O)c4ccc(F)cc4)s3)nc12	-4%
CC(=O)c1ccc(NC(=O)COc2ccccc2-c2nc(C(C)C)no2)cc1	6%
COc1cccc(C(=O)N2CCC(N3CCN(Cc4ccc(F)cc4)C(=O)C3=O)CC2)c1	1%
COc1cc(OC)c(NC(=O)C(Cc2ccccc2)NS(=O)(=O)c2cccc3nsnc23)cc1Cl (stereo not drawn)	2%

Screening data deposited in PubChem by National Center for Advancing Translational Sciences (NCATS).
